High-throughput results: PubChem BioAssay, several laboratories
Arbovirus anti: blocks arbovirus infection | arbovirus infection cell-based antiviral screen | inhibition, % at 10 µM | 200,000 compounds, 0.37% hits | AID 1251;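 active = inhibition from about 30%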;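 also: bluetongue infection of BSR cells; cell survival read as ATP light after 72 h; 0% = infected wells without compound and 100% = uninfected wells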
RecA intein inh: Mtb RecA intein splicing inhibition. P9WHJ3. cell-free RecA intein splicing, fluorescence. inhibition, %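 (about 9 µM by stock and volumes)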. 290,000 compounds, 0.75% hits; in the data active = inhibition above about 30%; inconclusive = no clear call, values can overlap the other calls;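 also: 0% = vehicle wells and 100% = reference inhibitor control wells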
Target sequence (P9WHJ3 whole entry, looked up): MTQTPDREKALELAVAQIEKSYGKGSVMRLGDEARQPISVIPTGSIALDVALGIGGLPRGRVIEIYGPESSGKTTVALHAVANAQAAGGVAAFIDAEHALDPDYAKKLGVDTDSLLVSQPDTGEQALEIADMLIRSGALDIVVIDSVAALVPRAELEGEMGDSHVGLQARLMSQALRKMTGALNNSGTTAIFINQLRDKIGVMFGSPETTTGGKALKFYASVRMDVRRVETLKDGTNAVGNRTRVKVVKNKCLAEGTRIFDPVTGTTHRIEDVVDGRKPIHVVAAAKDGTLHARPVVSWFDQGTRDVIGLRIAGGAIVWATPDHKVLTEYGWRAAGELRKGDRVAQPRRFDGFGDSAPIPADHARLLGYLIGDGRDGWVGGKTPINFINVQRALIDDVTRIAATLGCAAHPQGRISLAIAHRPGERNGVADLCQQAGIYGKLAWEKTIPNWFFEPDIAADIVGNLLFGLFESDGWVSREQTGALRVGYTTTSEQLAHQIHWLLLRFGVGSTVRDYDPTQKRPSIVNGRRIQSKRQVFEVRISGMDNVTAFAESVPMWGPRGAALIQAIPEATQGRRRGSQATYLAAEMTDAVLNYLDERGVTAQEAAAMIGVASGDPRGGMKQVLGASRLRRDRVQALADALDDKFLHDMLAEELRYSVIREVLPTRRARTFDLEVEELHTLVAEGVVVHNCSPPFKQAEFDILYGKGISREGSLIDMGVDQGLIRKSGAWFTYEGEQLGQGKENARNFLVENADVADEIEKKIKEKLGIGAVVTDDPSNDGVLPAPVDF
Mtb betalactam: beta-lactam sensitization of Mtb H37Rv | inhibition, % at 25 µM | AID 434955 | M. tuberculosis H37Rv growth with meropenem, percent inhibition; hits of this screen are not shown here | 330,000 compounds, 0.27% hits;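 active = about 74% or more and at least 40 points above the plate without the antibiotic, then above 30% in a dose series; inconclusive = first-round hits that could not be retested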;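 also: growth measured after seven days incubation then overnight dye step; 0% = bacteria only wells and 100% = bacteria with antibiotic; twin plates without the antibiotic show which effects depend on it; some results filed as inactive read as strong as hits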
Mtb H37Rv: M. tuberculosis H37Rv growth inhibitors, H37Rv strain (AID 1626). M. tuberculosis H37Rv growth inhibition; higher % means a stronger effect. one-dose inhibition, % at 10 µM; IC50 in µM for titrated hits. 220,000 compounds, 0.95% hits;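 active = confirmed in a dose series; inconclusive = inhibition above 80% but not taken into the dose series; inactive = below 80% or under 30% at every dose of the series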;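 also: bacteria incubated seven days before Alamar blue readout; 0% = bacteria only wells and 100% = bacteria with antibiotic wells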
YopH PTP inh: YopH (Yersinia) phosphatase inhibition; fluorescence Ex485/Em525; 140,000 compounds, 0.16% hits; inhibition, %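 (about 10 µM by stock and volumes)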;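 active = inhibition of 50% or more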;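 also: controls were vehicle for no effect and minimum signal wells for full effect; inactives centre near -20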
Arbovirus anti repeat: also measured in Arbovirus anti; calls as there; inhibition, %; measured here: 10K subset replicate screen; many hits read low in the repeat;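 first of two repeat runs on a subset; 0% = infected and 100% = uninfected wells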
An asterisk follows results filed as active; ? = inconclusive; . = no result given. These rows are one share of the data; count on the stated rates, not on these rows.

SMILES | Arbovirus anti | RecA intein inh | Mtb betalactam | Mtb H37Rv | YopH PTP inh | others
Cc1cccc(C)c1Oc1nc(-c2ccccc2)ncc1S(=O)(=O)c1ccccc1 | -4 | -1.7 | -3 | 7% | -41
COc1ccccc1/C=N/NC(=O)CNC(=O)c1ccc(S(=O)(=O)N2CCCC2)cc1 | 6 | 2.5 | 8 | -7% | .
CCCCCC(=O)NC(=S)Nc1ccc(N2CCCCC2)c(Cl)c1 | 7 | 0.8 | -9 | 0% | -31
O=C(/C=C/c1ccc(OCCCF)cc1)N1CCOCC1 | . | -0.5 | -1 | . | .
CCOC(=O)Cc1csc(NC(=O)COc2ccc(OC)cc2)n1 | -1 | -0.4 | -3 | 0% | -46 | Arbovirus anti repeat=2
COc1ccc(NC(=O)c2ccco2)cc1N | -4 | 1.6 | -1 | -15% | -35
CCN(CC)CCn1c(=S)[nH]c2cc(C(=O)NCc3ccc(C)cc3)ccc2c1=O | . | -5.3 | 1 | . | .
CCc1ccc(NC(=O)C/C(C)=N/NC(=O)OCc2ccc(OC)cc2)cc1 | -3 | 3.2 | 24 | ? | -9
Brc1ccc(-c2nnc3c4ccccc4nc(N4CCOCC4)n23)cc1 | 3 | 1.6 | 1 | . | -48
Cc1ccc(NCC(=O)N=Nc2c(O)n(C)c3ccccc23)cc1 | -8 | 1.8 | -3 | . | .
Cc1ccc(N(C(=O)c2ccc3c(c2)OCO3)C2C=CS(=O)(=O)C2)cc1 (centres undefined) | -3 | 1.2 | -2 | -6% | -41
COc1cccc(NC(=O)C2CCN(S(=O)(=O)c3ccc4c(c3)OCCO4)CC2)c1 | 16 | 0.4 | -4 | 4% | 1
CCCS(=O)(=O)N1CCCC(C(=O)NCCc2ccc(OC)c(OC)c2)C1 (centres undefined) | -1 | -3.1 | -10 | -2% | -2
O=C(NC1(C(F)(F)F)NC(=O)N(C2CCCCC2)C1=O)c1ccco1 (centres undefined) | -5 | 2.8 | -3 | -1% | .
O=C(CCc1nc2sc3c(c2c(=O)[nH]1)CCCC3)Nc1ccccc1Cl | . | 0.0 | -3 | . | .
COc1cccc(-c2nc(CS(=O)CC(=O)NCCCOC(C)C)c(C)o2)c1 (centres undefined) | 4 | 7.8 | -4 | -5% | -31
Cc1ccccc1C(=O)NC=C1C(=O)OC(C)(C)OC1=O | 5 | -1.6 | 5 | 0% | .
COc1ccc(CCNC(=O)CN2C(=O)NC(CCSC)C2=O)cc1 (centres undefined) | 4 | -3.8 | 1 | -4% | .
Cc1cc(-n2c(C)cc(C(=O)CN3C(=O)NC4(CCCCC4C)C3=O)c2C)no1 (centres undefined) | -8 | 0.8 | 6 | 3% | -49
COc1ccc(S(=O)(=O)N2CCC(n3cnc4cc(C(F)(F)F)ccc43)CC2)cc1 | 16 | 4.7 | -6 | -3% | -32
CC(Cc1ccccc1)[n+]1cc(/N=C(\N)[O-])on1 (centres undefined) | 1 | -0.2 | 0 | -11% | -22
COc1ccc(C)cc1C(=O)C1CC(C(=O)O)C(C)(C)C1C (centres undefined) | 1 | -1.5 | -4 | -4% | -22
CC(C)COC(=O)Nc1ccc(C(=O)O)cc1 | -3 | 1.7 | -9 | -4% | -143
CC(C)Oc1ccc(-c2nc(NCC3CCCO3)c3ccccc3n2)cc1 (centres undefined) | . | . | 93 | 78% | .
COc1ccccc1N1CCN(CCc2n[nH]c(=S)n2-c2ccccc2)CC1 | 5 | 5.0 | -9 | -8% | -22
O=C(c1cccc(S(=O)(=O)N2CCCC2)c1)N1CCCc2ccccc21 | 3 | 0.7 | -2 | -3% | .
Nc1ccc(S(=O)(=O)NC2(C(F)(F)F)NC(=O)N(c3ccccc3Cl)C2=O)cc1 (centres undefined) | 2 | 2.6 | -6 | 0% | -18
Cc1sc2ncnc(N/N=C/c3ccccc3O)c2c1C | -29 | -5.1 | 91 | 3% | -38
CSc1nnnn1CCn1nnnc1SC | 4 | -1.0 | -3 | -5% | -29
C[C@H](NC(=O)N1CCn2c1nc1ccccc12)C(=O)NCc1ccccc1 | . | 1.4 | 2 | . | .
O=C(COc1ccccc1)Nc1nnc(COc2ccccc2)s1 | . | -0.5 | 0 | . | .
O=C(Nc1cccc(Cl)c1)C1CCCN(S(=O)(=O)c2cnc[nH]2)C1 (centres undefined) | 2 | . | -1 | -9% | -32
CCOc1ccc(NCCC(=O)c2ccc3c(c2)OCO3)cc1 | -18 | -2.9 | 100 | ? | 22
O=C(c1ccco1)N1CCN(C(=S)Nc2cc(F)cc(F)c2)CC1 | . | 1.1 | -2 | . | .
O=C(O)C(O)(c1ccccc1)C1CCCC1 (centres undefined) | 3 | -1.3 | 5 | 0% | -35
Cc1cc(C)c(S(C)(=O)=O)c(S(=O)c2ccc(Cl)cc2)n1 (centres undefined) | 8 | -2.3 | -10 | -2% | -27
COC(=O)C(C)Sc1nnc(Cc2cc(=O)[nH]c(=O)[nH]2)n1-c1ccc(Cl)cc1 (centres undefined) | 0 | . | -5 | . | -33 | Arbovirus anti repeat=1
CCOC(=O)C1CCN(C(=O)Cn2c(=O)oc3cc(S(=O)(=O)N4CCCC4)ccc32)CC1 | . | -2.1 | -2 | . | .
CCOC(=O)N1CCN(CCC(=O)Nc2cc(C)ccc2C)CC1 | . | 1.1 | -13 | . | .
COc1ccc(Nc2oc(-c3cccs3)nc2C#N)cc1 | -7 | 2.6 | 6 | 10% | -39
Cc1sc(N/N=C/c2cc([N+](=O)[O-])ccc2O)nc1-c1ccccc1 | -9 | -0.7 | 3 | 5% | .
O=C(NC(Cc1ccccc1)C(=O)O)c1ccco1 (centres undefined) | 8 | 0.3 | -3 | -10% | .
O=C(OCc1ccccc1)c1ccccc1 | . | -1.7 | -6 | -6% | .
CN(C)CCSC1c2ccccc2CSc2ccccc21 (centres undefined) | . | 1.9 | 0 | . | .
Cc1cccc(NC(=S)N2CCCC2)c1 | . | 0.5 | -7 | . | .
N/C(=N\c1nc2c(c(=O)[nH]1)CCC2)Nc1ccccc1C(F)(F)F | -6 | 0.5 | 10 | 2% | -45
Nc1nc(SCC(=O)NC2CCCCC2)[nH]c(=O)c1-c1ccccc1 | 0 | -0.8 | -1 | -3% | -6
Cc1cc(C)cc(C(=O)NC(CC(N)=O)c2ccc(NCC3CC3)c([N+](=O)[O-])c2)c1 (centres undefined) | . | 1.6 | -7 | . | .
Cc1ccc(-c2nnn(CC(=O)N(c3cccc(F)c3)C(C(=O)NC3CCCC3)c3ccco3)n2)o1 (centres undefined) | 9 | 0.5 | 1 | -8% | -24
CCOC(=O)CN(C(=O)COc1nc(-c2ccccc2)cc(C)c1C#N)c1ccccc1 | . | 2.7 | -4 | -4% | .
More structures follow:
SMILES | Arbovirus anti | RecA intein inh | Mtb betalactam | Mtb H37Rv | YopH PTP inh | others
Cc1cc(N2CCN(S(=O)(=O)c3ccccc3)CC2)nc2c(C)cccc12 | . | 7.3 | 6 | . | .
CCOc1ccc(CCNC(=O)C2CCCN(c3nn4c(=O)cc(C)nc4s3)C2)cc1OCC (centres undefined) | 3 | -1.2 | -17 | -6% | -60
CCC1CCCCN1c1nc(-c2cccc(OC)c2O)nc2ccccc12 (centres undefined) | 3 | 5.3 | 67 | 12% | -48
CN1CCC(=NNC(=O)c2ccc(N(Cc3ccccc3Cl)S(C)(=O)=O)cc2)CC1 | -4 | -2.8 | 0 | -1% | -21
COC(=O)Cn1c(=O)c2c(nc3n2CCCN3Cc2ccccc2)n(C)c1=O | . | 0.9 | -3 | . | .
O=C(Cc1ccc([N+](=O)[O-])cc1)NCc1ccccn1 | 1 | -2.5 | 0 | -3% | .
CCC(C(=O)NCCCN1CCN(C)CC1)n1nc(C)c2sc3ccccc3c2c1=O (centres undefined) | . | 0.6 | -4 | . | .
COc1ccc2cc(C(c3nnnn3Cc3ccc(F)cc3)N3CCCCCC3)c(=O)[nH]c2c1 (centres undefined) | -1 | -1.3 | -4 | 3% | -32
Cc1cc(NC(=O)CSCC(=O)N(C)Cc2ccc(Cl)cc2Cl)no1 | . | 0.3 | -8 | . | .
Cc1cc(OCC(=O)Nc2ccc(S(=O)(=O)N3CCN(C)CC3)cc2)cc(C)c1Cl | 4 | 1.6 | -2 | 1% | 1

The closing 2 compounds of the section above lead into the next:
SMILES | Arbovirus anti | RecA intein inh | Mtb betalactam | Mtb H37Rv | YopH PTP inh | others
Cc1cc(NC(=O)CSCC(=O)N(C)Cc2ccc(Cl)cc2Cl)no1 | . | 0.3 | -8 | . | .
Cc1cc(OCC(=O)Nc2ccc(S(=O)(=O)N3CCN(C)CC3)cc2)cc(C)c1Cl | 4 | 1.6 | -2 | 1% | 1
COc1ccc(C2CC(c3ccccc3O)=NN2C(=O)c2ccccc2)cc1OC (centres undefined) | . | 5.4 | 3 | . | .
Cc1cccc[n+]1CC(=O)Nc1ccc([N+](=O)[O-])cc1 | . | -1.1 | 0 | . | .
O=C(N/N=C/c1ccccc1)c1cc(=O)[nH]c2ccccc12 | -5 | 6.0 | 4 | -1% | -7
O=C(/C=C/c1ccccc1)N/C(=C/c1ccccc1)C(=O)NCCCO | -4 | -5.4 | 0 | 4% | -15
C/C(=N\NC(=O)Cc1ccccc1)c1cccs1 | 2 | 3.9 | 9 | -10% | -20
CCOCCCNC(=O)CCc1nnc2ccc(N3CCCCC3)nn12 | . | 0.5 | 1 | . | .
C1CCN(CCCNC2C3CC4CC(C3)CC2C4)C1 (centres undefined) | -19 | -1.5 | 3 | -2% | -29
Cc1cccc(C)c1NC(=S)N(CCCN1CCN(C)CC1)Cc1cccs1 | 0 | 1.5 | -1 | -5% | .
O=C(COc1ccc(Cl)cc1)Nc1ccc(C(=O)O)cc1NC(=O)COc1ccc(Cl)cc1 | . | 7.4 | -5 | . | .
CN1CCN(C(=O)C23CCC(C)(C(=O)C2Br)C3(C)C)CC1 (centres undefined) | . | 0.3 | -6 | -4% | .
CCOc1ccc(N(C)Cc2cc(=O)oc3ccc(OC)cc23)cc1 | . | 4.2 | 37 | . | .
CCCCOP(=O)(c1ccc(N(C)C)cc1)C(O)c1ccc(C(C)C)cc1 (centres undefined) | . | 3.2 | -1 | . | .
CCc1nc(SCC(=O)Nc2cc(C)on2)c2c(C)c(C)sc2n1 | 1 | -1.2 | -10 | 0% | 1
Cc1ccccc1-n1nnnc1-c1ccccc1 | -1 | -0.9 | 5 | 1% | -61
C=CCSc1nnc(CCCCCN2C(=O)c3cccc4cccc(c34)C2=O)o1 | -7 | 0.8 | 54 | 7% | -30
Cc1ccc2c(c1)N(CC(=O)c1cccc(Cl)c1)C(=O)C(C)O2 (centres undefined) | 3 | 0.8 | -1 | -14% | -18
CCN(CC)S(=O)(=O)c1cccc(NC(=O)CCSc2ccc(Cl)cc2)c1 | -28 | 10 | -1 | -1% | 20
COc1ccc(-c2c(-c3ccc(O)cc3O)n[nH]c2C)cc1OC | -26 | -2.1 | ? | 2% | 0

In the list so far, 12 contain a Cl atom:
SMILES | Arbovirus anti | RecA intein inh | Mtb betalactam | Mtb H37Rv | YopH PTP inh | others
CCCCCC(=O)NC(=S)Nc1ccc(N2CCCCC2)c(Cl)c1 | 7 | 0.8 | -9 | 0% | -31
O=C(CCc1nc2sc3c(c2c(=O)[nH]1)CCCC3)Nc1ccccc1Cl | . | 0.0 | -3 | . | .
Nc1ccc(S(=O)(=O)NC2(C(F)(F)F)NC(=O)N(c3ccccc3Cl)C2=O)cc1 (centres undefined) | 2 | 2.6 | -6 | 0% | -18
O=C(Nc1cccc(Cl)c1)C1CCCN(S(=O)(=O)c2cnc[nH]2)C1 (centres undefined) | 2 | . | -1 | -9% | -32
Cc1cc(C)c(S(C)(=O)=O)c(S(=O)c2ccc(Cl)cc2)n1 (centres undefined) | 8 | -2.3 | -10 | -2% | -27
COC(=O)C(C)Sc1nnc(Cc2cc(=O)[nH]c(=O)[nH]2)n1-c1ccc(Cl)cc1 (centres undefined) | 0 | . | -5 | . | -33 | Arbovirus anti repeat=1
CN1CCC(=NNC(=O)c2ccc(N(Cc3ccccc3Cl)S(C)(=O)=O)cc2)CC1 | -4 | -2.8 | 0 | -1% | -21
Cc1cc(NC(=O)CSCC(=O)N(C)Cc2ccc(Cl)cc2Cl)no1 | . | 0.3 | -8 | . | .
Cc1cc(OCC(=O)Nc2ccc(S(=O)(=O)N3CCN(C)CC3)cc2)cc(C)c1Cl | 4 | 1.6 | -2 | 1% | 1
O=C(COc1ccc(Cl)cc1)Nc1ccc(C(=O)O)cc1NC(=O)COc1ccc(Cl)cc1 | . | 7.4 | -5 | . | .
Cc1ccc2c(c1)N(CC(=O)c1cccc(Cl)c1)C(=O)C(C)O2 (centres undefined) | 3 | 0.8 | -1 | -14% | -18
CCN(CC)S(=O)(=O)c1cccc(NC(=O)CCSc2ccc(Cl)cc2)c1 | -28 | 10 | -1 | -1% | 20
